Yeast UUG start – modulators of start codon recognition fidelity in yeast; S. cerevisiae UUG-firefly luciferase reporter, luminescence/redox ratio; activity score, % at 18.7 µM; 350,000 compounds, 0.13% hits;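 active = replicate mean at a twofold rise or more, about +100% in these data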;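 note: firefly luciferase made from a UUG start codon reports start codon fidelity; reporter light over untreated wells divided by growth signal over untreated wells; some hits fall short of that in this replicate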
MT1-MMP act inh – blocks activation of human MT1-MMP; GFP/RFP ratio change, % at 20 µM; AID 651647; P50281; 360,000 compounds, 0.061% hits; HT1080 RFP-PRO-GFP cells, GFP/RFP ratio fluorescence, overnight; percent of plate control window, DMSO zero;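 active = GFP/RFP ratio change of at least 30% with cell ATP level not reduced by more than half and red fluorescence within 50% of control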; note: strong numbers were not always called active
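Assay system – RFP-PRO-GFP reporter HT1080 cells · Compound dosing – single dose of 20 µM compound, 1% DMSO final · Incubation – overnight compound exposure at 37 °C · Measure – GFP/RFP fluorescence ratio · Benchmarks – DMSO wells and RFP-L50D-GFP cells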
MT1-MMP act inh RFP – further read-out of MT1-MMP act inh, marked with its call; RFP signal change, %; measured here: RFP expression control read;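 0 = vehicle wells; hits needed this value within 50% of zero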
* = called active by the depositor. The list is partial, so the mix of outcomes need not match the whole.

How did Cc1c(N(C)S(=O)(=O)c2ccc(Cl)c(C(=O)NCC3CCCO3)c2)c(=O)n(-c2ccccc2)n1C (configuration not stated) do in these assays?
Yeast UUG start: -25; MT1-MMP act inh: -1; MT1-MMP act inh RFP: -1

What do the screens show for `O=C(c1cc(Cl)nc2ccccc12)N1CCN(Cc2ccc3c(c2)OCO3)CC1`?
Yeast UUG start: -13; MT1-MMP act inh: 1; MT1-MMP act inh RFP: 3

Results for CN1CCN(S(=O)(=O)c2cccc(C(=O)N3CCN(c4ccccc4F)CC3)c2)CC1 ?
Yeast UUG start: -1; MT1-MMP act inh: 4; MT1-MMP act inh RFP: 2

What do the screens show for `O=C(Nc1nc(-c2ccccn2)cs1)c1cc(S(=O)(=O)N2CCOCC2)ccc1F`?
Yeast UUG start: -14; MT1-MMP act inh: 3; MT1-MMP act inh RFP: 2

Results for Cn1c(=O)c2[nH]c(C3CC=CCC3)nc2n(C)c1=O (configuration not stated) ?
Yeast UUG start: -3; MT1-MMP act inh: -2; MT1-MMP act inh RFP: -3

How did CCCCN(C(=O)c1cc(Cl)nc2ccccc12)c1c(N)n(CCC)c(=O)[nH]c1=O do in these assays?
Yeast UUG start: -8; MT1-MMP act inh: 1; MT1-MMP act inh RFP: 1

How did COc1ccc(O)cc1 do in these assays?
Yeast UUG start: -17; MT1-MMP act inh: 1; MT1-MMP act inh RFP: 1

What do the screens show for `CCN(C(=O)COC(=O)CCCc1nc2ccccc2s1)c1c(N)n(Cc2ccccc2)c(=O)[nH]c1=O`?
Yeast UUG start: -20; MT1-MMP act inh: -6; MT1-MMP act inh RFP: 0

How did CCCn1c(C)cc(/C=C(\C#N)C(=O)OCC(=O)Nc2cccc(S(N)(=O)=O)c2)c1C do in these assays?
Yeast UUG start: -12; MT1-MMP act inh: 8; MT1-MMP act inh RFP: -3

What do the screens show for `Nc1nc2c(ncn2[C@@H]2O[C@H](CNCc3ccccc3)[C@@H](O)[C@H]2O)c(=O)[nH]1`?
Yeast UUG start: -7; MT1-MMP act inh: 1; MT1-MMP act inh RFP: 3

How did Cc1ccc(S(=O)(=O)N2CCN(CC(=O)Nc3ccnn3C3CCCC3)CC2)cc1 do in these assays?
Yeast UUG start: -20; MT1-MMP act inh: 3; MT1-MMP act inh RFP: -8

What do the screens show for `C[C@H](CO)N1C[C@H](C)[C@H](CN(C)C(=O)C2CC2)OCc2cnnn2CCCC1=O`?
Yeast UUG start: -4; MT1-MMP act inh: 6; MT1-MMP act inh RFP: 5

Results for CC1C(=O)N(Cc2cn(CCC3OCCCO3)nn2)CCS(=O)(=O)N1Cc1ccc(-c2ccccc2)cc1 (configuration not stated) ?
Yeast UUG start: 26; MT1-MMP act inh: 2; MT1-MMP act inh RFP: -1

What do the screens show for `O=C(O)c1ccccc1`?
Yeast UUG start: -15; MT1-MMP act inh: 4; MT1-MMP act inh RFP: 3

How did O=C(CC(=O)c1ccccc1)Nc1cccc([N+](=O)[O-])c1 do in these assays?
Yeast UUG start: -9; MT1-MMP act inh: 5; MT1-MMP act inh RFP: -3

Continued; the last five above are carried over.
How did Cc1ccc(S(=O)(=O)N2CCN(CC(=O)Nc3ccnn3C3CCCC3)CC2)cc1 do in these assays?
Yeast UUG start: -20; MT1-MMP act inh: 3; MT1-MMP act inh RFP: -8

What do the screens show for `C[C@H](CO)N1C[C@H](C)[C@H](CN(C)C(=O)C2CC2)OCc2cnnn2CCCC1=O`?
Yeast UUG start: -4; MT1-MMP act inh: 6; MT1-MMP act inh RFP: 5

Results for CC1C(=O)N(Cc2cn(CCC3OCCCO3)nn2)CCS(=O)(=O)N1Cc1ccc(-c2ccccc2)cc1 (configuration not stated) ?
Yeast UUG start: 26; MT1-MMP act inh: 2; MT1-MMP act inh RFP: -1

What do the screens show for `O=C(O)c1ccccc1`?
Yeast UUG start: -15; MT1-MMP act inh: 4; MT1-MMP act inh RFP: 3

How did O=C(CC(=O)c1ccccc1)Nc1cccc([N+](=O)[O-])c1 do in these assays?
Yeast UUG start: -9; MT1-MMP act inh: 5; MT1-MMP act inh RFP: -3

How did CCC1(c2ccc(C)cc2)NC(=O)N(C(C)C(=O)Nc2ccc(N3CCOCC3)cc2)C1=O (configuration not stated) do in these assays?
Yeast UUG start: -17; MT1-MMP act inh: -3; MT1-MMP act inh RFP: 2

Results for CS(=O)(=O)c1ccc(Cl)c(C(=O)Nc2ccc3nc(N4CCOCC4)sc3c2)c1 ?
Yeast UUG start: 11; MT1-MMP act inh: -4; MT1-MMP act inh RFP: 1

What do the screens show for `Cc1cccc(C(=O)O)c1O`?
Yeast UUG start: -2; MT1-MMP act inh: 2; MT1-MMP act inh RFP: 3

How did O=C(OCc1cn([C@H]2CN(Cc3cccs3)[C@@H](c3ccccc3)C[C@@H]2O)nn1)c1ccccc1 do in these assays?
Yeast UUG start: -15; MT1-MMP act inh: 0; MT1-MMP act inh RFP: 0

What do the screens show for `CN(C)S(=O)(=O)c1ccc(F)c(C(=O)Nc2ccccc2C(=O)NC2CC2)c1`?
Yeast UUG start: -19; MT1-MMP act inh: -1; MT1-MMP act inh RFP: 1

Results for COc1ccc(NS(=O)(=O)c2ccc(C)c(NC(=O)C3CCCO3)c2)cc1 (configuration not stated) ?
Yeast UUG start: -4; MT1-MMP act inh: 3; MT1-MMP act inh RFP: 1

What do the screens show for `CCOc1ncccc1C(=O)OCC(=O)Nc1cc(S(=O)(=O)N2CCCCC2)ccc1Cl`?
Yeast UUG start: -21; MT1-MMP act inh: 1; MT1-MMP act inh RFP: -1

What do the screens show for `CC1CN(Cc2ccccc2)C(=O)NC1=O` (configuration not stated)?
Yeast UUG start: -15; MT1-MMP act inh: 2; MT1-MMP act inh RFP: 3

Results for CCCCN1CC(C)(C)[C@H](CC(=O)NC)C1=O ?
Yeast UUG start: 6; MT1-MMP act inh: 0; MT1-MMP act inh RFP: 3

How did COc1cccc(NC(=O)COC(=O)C2CC3CCCC(C2)C3=O)c1 (configuration not stated) do in these assays?
Yeast UUG start: -11; MT1-MMP act inh: 7; MT1-MMP act inh RFP: 4

What do the screens show for `COc1cccc(-c2sc3ccc(OC)cc3c2-c2ccc(OCCN3CCCC3)cc2)c1`?
Yeast UUG start: -6; MT1-MMP act inh: 0; MT1-MMP act inh RFP: 0

Results for CN(C)N(C(=O)c1cc(-c2cccs2)nn1-c1ccccc1)C1CCS(=O)(=O)C1 (configuration not stated) ?
Yeast UUG start: -5; MT1-MMP act inh: 1; MT1-MMP act inh RFP: -1

Results for COc1cc2oc(=O)ccc2cc1-c1c(OC)ccc2ccc(=O)oc12 ?
Yeast UUG start: -18; MT1-MMP act inh: -1; MT1-MMP act inh RFP: -1

Results for CN(C)C(=O)c1ccc(NC(=O)COC(=O)Cn2cc(C(F)(F)F)ccc2=O)cc1 ?
Yeast UUG start: -19; MT1-MMP act inh: -4; MT1-MMP act inh RFP: 4

Results for COc1ccccc1/C=C/C(=O)Nc1cccc(S(=O)(=O)N2CCOCC2)c1 ?
Yeast UUG start: -1; MT1-MMP act inh: 0; MT1-MMP act inh RFP: -2

2 entries drawn at random from those above, as already listed:
Results for CN(C)N(C(=O)c1cc(-c2cccs2)nn1-c1ccccc1)C1CCS(=O)(=O)C1 (configuration not stated) ?
Yeast UUG start: -5; MT1-MMP act inh: 1; MT1-MMP act inh RFP: -1

How did O=C(OCc1cn([C@H]2CN(Cc3cccs3)[C@@H](c3ccccc3)C[C@@H]2O)nn1)c1ccccc1 do in these assays?
Yeast UUG start: -15; MT1-MMP act inh: 0; MT1-MMP act inh RFP: 0

Continued.
Results for O=C(Cn1cc(COc2ccccc2C(F)(F)F)nn1)c1ccc(O)cc1 ?
Yeast UUG start: 141*; MT1-MMP act inh: -2; MT1-MMP act inh RFP: -1

What do the screens show for `Cn1c(N)c(N=Cc2ccccc2)c(=O)n(C)c1=O`?
Yeast UUG start: -3; MT1-MMP act inh: 2; MT1-MMP act inh RFP: 1

What do the screens show for `O=C(COc1ccccc1Br)NC(=O)NC1CCCC1`?
Yeast UUG start: 0; MT1-MMP act inh: 0; MT1-MMP act inh RFP: 4

How did CN(C)c1ccc(CNC(=O)/C=C/[C@H]2O[C@@H](n3ccc(=O)[nH]c3=O)[C@H](O)[C@@H]2O)cc1 do in these assays?
Yeast UUG start: -18; MT1-MMP act inh: 2; MT1-MMP act inh RFP: 5

What do the screens show for `O=C(NNC(=O)OCc1ccccc1)OCc1ccccc1`?
Yeast UUG start: -13; MT1-MMP act inh: 2; MT1-MMP act inh RFP: 1

How did Cc1ccc(Nc2nnc(SC(C)C(=O)NC3CC3)s2)cc1 (configuration not stated) do in these assays?
Yeast UUG start: -23; MT1-MMP act inh: 3; MT1-MMP act inh RFP: -2

What do the screens show for `COc1ccc(C(=O)NCc2ccc(Cl)cc2)cc1S(=O)(=O)N1CCCC1`?
Yeast UUG start: -10; MT1-MMP act inh: -4; MT1-MMP act inh RFP: -3

How did Cc1ccc(C(=O)Nc2cccc(S(=O)(=O)N3CCCCC3)c2)cc1S(=O)(=O)N1CCOCC1 do in these assays?
Yeast UUG start: -31; MT1-MMP act inh: 1; MT1-MMP act inh RFP: -17

How did COc1ccc(Cc2c(C(C)(C)C)nc3ccc(Br)cn23)c(C)c1 do in these assays?
Yeast UUG start: -3; MT1-MMP act inh: 4; MT1-MMP act inh RFP: 2

What do the screens show for `CCCN(C(=O)c1cnccn1)c1c(N)n(Cc2ccccc2)c(=O)[nH]c1=O`?
Yeast UUG start: 0; MT1-MMP act inh: 2; MT1-MMP act inh RFP: 4

What do the screens show for `Cc1cccc(Nc2nnc(SCC(=O)c3c(N)n(C4CC4)c(=O)[nH]c3=O)s2)c1C`?
Yeast UUG start: -5; MT1-MMP act inh: -1; MT1-MMP act inh RFP: -5

Results for CCCCN1C(=N)N([C@@H](CCC)CN2CCC[C@H]2CN2C(N)=NC[C@H]2CC(C)C)C[C@H]1Cc1ccccc1 ?
Yeast UUG start: -12; MT1-MMP act inh: 4; MT1-MMP act inh RFP: 8

Results for O=C(COC(=O)c1ccc(O)cc1O)NNC(=O)c1cccs1 ?
Yeast UUG start: 1; MT1-MMP act inh: -2; MT1-MMP act inh RFP: 0

How did COC(=O)c1ccc(CNC(=O)c2ccc(OC)c(S(=O)(=O)NC3CCCC3)c2)cc1 do in these assays?
Yeast UUG start: -5; MT1-MMP act inh: 3; MT1-MMP act inh RFP: -1

How did COc1ccc(CNC(=O)C[C@H]2C[C@H](C(=O)N3CCCCC3)[C@@]3(CCc4ccccc4)c4[nH]c5cc(-c6ccco6)ccc5c4CCN3C2=O)cc1OC do in these assays?
Yeast UUG start: 0; MT1-MMP act inh: -9; MT1-MMP act inh RFP: -10

How did CC(OC(=O)c1ccc2c(=O)n3c(nc2c1)CCC3)C(=O)Nc1ccc(C(N)=O)cc1 (configuration not stated) do in these assays?
Yeast UUG start: -7; MT1-MMP act inh: -2; MT1-MMP act inh RFP: -2

How did Cc1cc(C)c(NC(=O)c2ccc3nccnc3c2)c(C)c1 do in these assays?
Yeast UUG start: -14; MT1-MMP act inh: -15; MT1-MMP act inh RFP: -11

How did CC(NS(=O)(=O)c1cccc(C(=O)N(C)Cc2ccc(N3CCOCC3)cc2)c1)c1ccccc1 (configuration not stated) do in these assays?
Yeast UUG start: -3; MT1-MMP act inh: 0; MT1-MMP act inh RFP: -4

What do the screens show for `CCCCN(C(=O)C1CCC1)c1c(N)n(Cc2ccccc2)c(=O)[nH]c1=O`?
Yeast UUG start: -7; MT1-MMP act inh: -3; MT1-MMP act inh RFP: -7

What do the screens show for `O=[N+]([O-])c1ccccc1N=Nc1ccc(O)cc1O`?
Yeast UUG start: -31; MT1-MMP act inh: 12; MT1-MMP act inh RFP: -1

How did Cc1nn(-c2ccc(C(=O)NCC(c3ccco3)N3CCCC3)cc2)c(C)c1Cl (configuration not stated) do in these assays?
Yeast UUG start: 4; MT1-MMP act inh: 10; MT1-MMP act inh RFP: 8

How did N#Cc1cccc(NC(=O)c2cc(C3CCCCN3S(=O)(=O)c3cccc4cccnc34)on2)c1 (configuration not stated) do in these assays?
Yeast UUG start: -12; MT1-MMP act inh: -6; MT1-MMP act inh RFP: -18

Results for O=C(CCCC(=O)NN=Cc1ccc(Cl)cc1Cl)NN=Cc1ccc(Cl)cc1Cl ?
Yeast UUG start: -9; MT1-MMP act inh: 3; MT1-MMP act inh RFP: -3

What do the screens show for `CCOC(=O)CCCCCC(=O)Nc1ccc2c(c1)C(=O)N([C@H](C)CO)C[C@H](C)[C@@H](CN(C)S(C)(=O)=O)OCCCC[C@@H](C)O2`?
Yeast UUG start: 0; MT1-MMP act inh: 3; MT1-MMP act inh RFP: 1

How did CCOc1ccc(S(=O)(=O)N2CCC(C(=O)NCc3ccccc3CN3CCCC3)CC2)cc1 do in these assays?
Yeast UUG start: 1; MT1-MMP act inh: -3; MT1-MMP act inh RFP: 0

What do the screens show for `O=C(N=Nc1c(O)[nH]c2ccc(F)cc12)c1ccc(NS(=O)(=O)c2cccs2)cc1`?
Yeast UUG start: 2; MT1-MMP act inh: 2; MT1-MMP act inh RFP: -1

How did CCOC(=O)C1(C)CCCCN1C(=O)c1ccco1 (configuration not stated) do in these assays?
Yeast UUG start: -24; MT1-MMP act inh: 0; MT1-MMP act inh RFP: 6

Results for COc1ccc(NS(=O)(=O)c2cccc(C(=O)NNC(=O)c3ccc(=O)[nH]c3)c2)cc1 ?
Yeast UUG start: 36; MT1-MMP act inh: 0; MT1-MMP act inh RFP: -1

Results for CC1=C(c2ccccc2)C=NNCC1=O ?
Yeast UUG start: -11; MT1-MMP act inh: 3; MT1-MMP act inh RFP: 4
